E coli growth = E. coli growth inhibition, primary screen, OD600. Escherichia coli growth, 23 h; stronger effect = lower value. OD600 absorbance (no concentration beside the values). actives 0.21% (n = 330,000);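 active means OD600 absorbance below the run mean of sample wells minus 3.6 SD, in any replicate, cut at about 0.56 in these data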;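 further: stock transfer was 300 nL into about 60 µL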
HNF4A DNA FP = change in binding of human HNF4A to DNA, primary screen, biochemical, fluorescence polarization, FITC-DNA; 1 h; activity change, % at 10 µM; actives 0.3% (n = 360,000); in the data active means activity change above about 30%, passing the limit was not always enough;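 further: controls were the assay level and a saturating level of protein; the project sought stronger binding though the title names inhibitors; some compounds called inactive have numbers as strong as hits; positive values seem to mean higher polarization but the record does not say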
Target sequence (P41235 whole entry, looked up): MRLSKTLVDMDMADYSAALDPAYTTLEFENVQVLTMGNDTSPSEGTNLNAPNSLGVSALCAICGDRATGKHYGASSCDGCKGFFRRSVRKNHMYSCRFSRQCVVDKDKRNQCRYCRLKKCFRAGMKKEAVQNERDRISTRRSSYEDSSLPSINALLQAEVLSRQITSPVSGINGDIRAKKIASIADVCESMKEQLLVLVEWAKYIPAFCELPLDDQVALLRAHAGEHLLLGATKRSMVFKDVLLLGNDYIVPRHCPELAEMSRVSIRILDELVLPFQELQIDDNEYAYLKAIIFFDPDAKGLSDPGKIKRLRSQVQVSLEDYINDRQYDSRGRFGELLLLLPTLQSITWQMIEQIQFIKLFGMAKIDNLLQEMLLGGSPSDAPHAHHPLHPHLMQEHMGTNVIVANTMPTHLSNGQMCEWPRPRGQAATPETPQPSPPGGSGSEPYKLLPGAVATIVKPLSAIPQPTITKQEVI
B2AR ag = beta2AR agonists driving receptor internalization, primary screen, cell-based, FAP fluorogen, flow cytometry; Beta-2 adrenergic receptor (Homo sapiens), P07550; Am2.2-beta2AR cells; reference of the scale not given here; response, % (test concentration not listed); actives 0.43% (n = 340,000);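 active means response above a set limit, near 3 SD of response in nonfluorescent compounds, cut at about 42% in these data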;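 further: stock transfer was 100 nL into about 11 µL; a reference agonist was the positive control; negative values mostly stem from fluorescent compounds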
FGF22 binding = binders of human FGF22 protein, primary screen, FGF22 synaptogenesis inhibitor project, biophysical, thermal shift, single point; Fibroblast growth factor 22 (Homo sapiens), Q9HCT0; recombinant FGF22 thermal shift, SYPRO orange fluorescence; percent of sucrose octasulfate shift, DMSO zero; calls only at 9.99 µM; actives 1.5% (n = 340,000);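 active means melting point raised past a set limit in the mean and every replicate; three in four hits are not shown here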
Target sequence (Q9HCT0 whole entry, looked up): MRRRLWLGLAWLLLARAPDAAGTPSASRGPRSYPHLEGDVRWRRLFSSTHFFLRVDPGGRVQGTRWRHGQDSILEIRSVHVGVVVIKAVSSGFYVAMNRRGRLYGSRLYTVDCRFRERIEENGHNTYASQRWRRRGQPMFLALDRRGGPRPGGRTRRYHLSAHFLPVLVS
UCH37 inh = inhibitors of human UCH37 deubiquitinase, primary screen, biochemical, Ub-AMC cleavage, fluorescence. Ubiquitin carboxyl-terminal hydrolase isozyme L5 (Homo sapiens), Q9Y5K5. purified proteasome/UCH37. inhibition, % (test concentration not listed). actives 0.33% (n = 330,000). AID 588478, 2011;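 active means mean of two replicates above 20%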;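 further: 0% = compound-free wells with enzyme and 100% = wells lacking proteasome; stock transfer was 100 nL into about 20 µL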
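Material: Human UCH37 enzyme supplied as purified proteasome complex | Schedule: 30 min preincubation with enzyme, 25 min cleavage at room temperature | Detection: AMC fluorescence 355/460 nm | Measure: % inhibition of Ub-AMC cleavage fluorescence | Controls: Wells without proteasome as full block, compound-free enzyme plus substrate as uninhibited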
rRNA inh HTS = reduced GFP signal of wild-type E. coli, primary screen, bacterial rRNA inhibitor project, GFP/RFP fluorescence, OD600, single point. E. coli WT GFP vs humanized-ribosome RFP mutants, 24 h; stronger effect = lower value; DMSO median 0, no signal -100. GFP signal change (wild-type ribosome), % (test concentration not listed). AID 720706, 2013. actives 1.6% (n = 350,000);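 active means significant combined selectivity score with lowered wild-type GFP, culture density cut under 30%, mutant RFP and density less affected; inactive means any of these conditions unmet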; further: one replicate is shown; some compounds called inactive have numbers as strong as hits
ALR H2O2 inh = inhibitors of human ALR sulfhydryl oxidase, primary screen, biochemical, H2O2 detection, HRP-luminol luminescence, single point. purified ALR, DTT oxidation. actives 3.8% (n = 290,000). inhibition, % (test concentration not listed);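 active means mean and each replicate at 75% or more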;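 further: stock transfer was 7.5 nL into about 7.5 µL; 0% = neutral wells and 100% = wells with inactivated enzyme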
Target sequence (P55789 whole entry, looked up): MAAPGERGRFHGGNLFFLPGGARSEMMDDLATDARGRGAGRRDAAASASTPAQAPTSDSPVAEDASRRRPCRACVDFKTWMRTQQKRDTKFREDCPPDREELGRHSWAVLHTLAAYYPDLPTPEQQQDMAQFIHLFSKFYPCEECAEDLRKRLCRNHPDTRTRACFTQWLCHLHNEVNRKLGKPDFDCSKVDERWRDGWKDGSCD
rRNA inh HTS OD600 = second read-out of rRNA inh HTS, no call of its own (marks repeat the call); OD600 change, %; measured here: OD600 growth;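 optical density of the mix in the first replicate; 0 = DMSO median and -100 = no signal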
rRNA inh HTS RFP = also measured in rRNA inh HTS; calls as there; RFP signal change, %; measured here: RFP humanized mutant strains;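 first replicate; 0 = DMSO median and -100 = no signal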
An asterisk follows results filed as active; i = inactive; . = no result given. Not all compounds are listed; rates above refer to the full screens.

SMILES	E coli growth	HNF4A DNA FP	B2AR ag	FGF22 binding	UCH37 inh	rRNA inh HTS	rRNA inh HTS OD600	rRNA inh HTS RFP	ALR H2O2 inh
c1ccc(Nc2cccc(Nc3ccccc3)c2)cc1	0.67	3.5	1	.	4.6	.	.	.	98*
COc1ccc(NC(=O)c2cc(-c3cccnc3)nc3c(C)c(C)ccc23)c(OC)c1	0.73	1.6	19	i	-2.2	20	20	-0.8	-8
O=C(C1=C(O)C(=O)N(CCN2CCOCC2)C1c1cccs1)c1cc2ccccc2o1 (stereo unspecified)	0.69	5.5	17	i	11	5	-2	-5.8	1
COc1ccc(CCNC(=O)CCCn2c(=O)[nH]c3cc(OC)c(OC)cc3c2=O)cc1OC	0.7	1.2	-2	.	4.2	.	.	.	-9
COc1ccc(C(=O)NC(CCSC)C(=O)N2CCCCCC2)cc1 (stereo unspecified)	0.71	2.0	2	i	-1.4	4	6	-0.3	.
O=C(NNC(=S)Nc1ccc(Br)cc1Cl)c1ccco1	0.57	6.4	7	.	3.3	-55	-77	-26	82*
CCOC(=O)c1cccc(NC(=O)CCCn2c(=O)c3cccn3c3cccnc32)c1	0.7	2.8	-8	i	0.5	9	14	-0.8	-4
CCOC(=O)c1ccc(NC(=O)CN2CCc3ccccc3C2)cc1	0.64	5.1	-3	.	3.7	.	.	.	-42
COc1ccc(CCC(=O)Nc2cc3c4c(c2)CC(=O)N4CCC3)cc1	0.67	-4.7	8	i	4.6	3	1	0.4	-6
O=C(NCC(=O)N1CCCC(C(F)(F)F)C1)c1cccs1 (stereo unspecified)	0.7	3.1	-12	i	1.4	9	9	0.7	.
COc1ccc(-c2n[nH]c(C)c2-c2ccc(Cl)cc2)c(O)c1OC	0.69	4.7	23	.	1.4	.	.	.	-1
CCC(C(=O)Nc1ccc2[nH]ncc2c1)c1ccccc1 (stereo unspecified)	0.62	4.2	10	i	1.5	6	1	-1.0	-55
COCc1cc(C)nc2sc(C(=O)OC)c(N)c12	0.71	3.8	-7	.	-8.2	.	.	.	.
C=C(C)CN(CC)C(=O)Cn1cnc2c(oc3ccccc32)c1=O	0.68	-0.2	-4	i	2.4	1	-5	-0.8	-10
COc1cccc(C(=O)OCC(=O)NCCc2ccccc2)c1OC	0.66	-1.6	-9	.	5.8	.	.	.	-4
Cc1ccc2ccccc2c1NC(=O)Cn1nnc(-c2cccnc2)n1	0.66	2.0	-5	.	1.8	10	4	1.8	-1
Cc1cccc(N(CC(=O)NCc2ccco2)C(=O)CCC(=O)Nc2nccs2)c1	0.7	2.4	-3	i	1.8	10	10	-0.8	-1
Cc1nc2ccccn2c1C(=O)NCc1cccnc1	0.68	2.3	-7	i	3.8	10	-7	1.9	-13
CN(C)CC(C)(C)CNC(=O)c1cc(Br)cc(Br)c1O	0.69	-1.3	1	i	-1.8	8	1	0.5	37
CCOC(=O)Cn1ncn(-c2ccc(OC(F)(F)F)cc2)c1=O	0.7	2.0	-2	i	3.3	10	3	-0.6	.
Cc1nn(-c2ccccc2)c(C)c1C(=O)OCC(=O)Nc1ccccc1	0.69	1.6	8	i	3.2	-6	-16	-2.4	-1
O=C(NCCC1=CCCCC1)C(=O)NCC(c1ccco1)N1CCN(c2ccccc2F)CC1 (stereo unspecified)	0.72	2.6	-4	i	4.9	3	5	-4.8	-5
C=CCn1c(COc2cccc3cccnc23)nnc1SCC(=O)O	0.77	5.2	5	.	-1.0	.	.	.	-22
COc1ccc(NC(=O)CN(C)C(=O)CCCc2nc3ccccc3s2)cc1	0.69	-6.0	-9	i	1.3	-5	-5	3.1	.
CCCCn1c(N)c(N(CCOC)C(=O)Cn2c(=O)cnc3ccccc32)c(=O)[nH]c1=O	0.69	0.4	0	i	-0.5	9	9	0.0	5
O=C(CSc1nnc(-c2ccccc2)n1-c1ccc(Cl)cc1)N/N=C/c1ccco1	.	-2.0	-3	.	.	.	.	.	-2
COc1ccc(NS(=O)(=O)c2cc(C(=O)N3CCCCCC3)ccc2C)cc1	0.72	1.1	2	i	5.4	-27	-26	1.8	10
Cc1csc(CN(C)C(=O)CC2C(=O)NCCN2Cc2ccc(Cl)c(F)c2)n1 (stereo unspecified)	0.67	6.1	-3	i	-4.9	-8	-4	0.4	-1
CN(C)CCNc1ncnc2c1ncn2[C@H]1CN(Cc2cccnc2)C[C@@H](CO)O1	.	0.0	.	i	.	18	14	4.0	.
C=CCNC(=S)NNc1nc2sc3c(c2c(=O)[nH]1)CC(C)(C)OC3	0.68	1.8	6	i	-0.7	17	12	3.4	49
Cc1cc(C(=O)N2CCCC(N3CCN(c4ccccc4C)CC3)C2)nc(C)n1 (stereo unspecified)	0.63	-3.1	-2	i	3.1	0	-8	-3.8	12
Cc1ccc(NC(=O)CCOc2ccccc2)cc1S(=O)(=O)Nc1ccccc1Cl	0.72	-3.4	11	.	5.8	.	.	.	-12
O=C(NCCc1nc(-c2ccccc2)no1)c1ccco1	0.68	2.6	4	.	1.6	.	.	.	1
Cc1csc(SCC(=O)NCCc2ccc(Cl)cc2)n1	0.66	-0.3	2	i	1.8	-20	-19	-12	-13
CC1Cc2ccccc2N1C1=CC(=O)CC(C)(C)C1 (stereo unspecified)	0.7	1.4	2	i	20	7	2	0.3	11
COc1ccc2sc(NC(C)=O)nc2c1	0.66	-5.4	-2	.	2.4	.	.	.	-11
CC12CCC(=O)N1C(C(=O)NNC(=O)COc1ccccc1Cl)CS2 (stereo unspecified)	0.65	-3.0	1	i	-0.4	8	14	-0.6	8
Cc1ccc(C2CC(=O)C=C(O)C2)cc1 (stereo unspecified)	0.76	-0.5	-3	.	5.3	.	.	.	-3
O=C(NNc1c(Cl)cccc1Cl)c1sccc1Cl	0.68	-1.6	-6	i	2.4	-11	-20	1.5	-9
Cc1nn2c(-c3cccnc3)ccnc2c1-c1ccccc1	0.66	3.6	-20	.	2.2	.	.	.	-2

A different layout for part of the listing above.
molecule: CC1Cc2ccccc2N1C1=CC(=O)CC(C)(C)C1 (stereo unspecified)
  E coli growth: 0.7
  HNF4A DNA FP: 1.4
  B2AR ag: 2
  FGF22 binding: i
  UCH37 inh: 20
  rRNA inh HTS: 7
  rRNA inh HTS OD600: 2
  rRNA inh HTS RFP: 0.3
  ALR H2O2 inh: 11

molecule: COc1ccc2sc(NC(C)=O)nc2c1
  E coli growth: 0.66
  HNF4A DNA FP: -5.4
  B2AR ag: -2
  FGF22 binding: .
  UCH37 inh: 2.4
  rRNA inh HTS: .
  rRNA inh HTS OD600: .
  rRNA inh HTS RFP: .
  ALR H2O2 inh: -11

molecule: CC12CCC(=O)N1C(C(=O)NNC(=O)COc1ccccc1Cl)CS2 (stereo unspecified)
  E coli growth: 0.65
  HNF4A DNA FP: -3.0
  B2AR ag: 1
  FGF22 binding: i
  UCH37 inh: -0.4
  rRNA inh HTS: 8
  rRNA inh HTS OD600: 14
  rRNA inh HTS RFP: -0.6
  ALR H2O2 inh: 8

molecule: Cc1ccc(C2CC(=O)C=C(O)C2)cc1 (stereo unspecified)
  E coli growth: 0.76
  HNF4A DNA FP: -0.5
  B2AR ag: -3
  FGF22 binding: .
  UCH37 inh: 5.3
  rRNA inh HTS: .
  rRNA inh HTS OD600: .
  rRNA inh HTS RFP: .
  ALR H2O2 inh: -3

Next results
SMILES	E coli growth	HNF4A DNA FP	B2AR ag	FGF22 binding	UCH37 inh	rRNA inh HTS	rRNA inh HTS OD600	rRNA inh HTS RFP	ALR H2O2 inh
Cc1c(C(=O)OCC(=O)Nc2c(C)n(C)n(-c3ccccc3)c2=O)oc2ccccc12	0.65	-2.4	-6	i	1.1	9	-3	3.5	99*
CCOCC(=O)Nc1cc(OC)c(Cl)cc1OC	0.7	-0.3	-15	.	0.7	.	.	.	-8
O=C(NCc1ccco1)C1CC(=O)N(c2cccc(Cl)c2)C1 (stereo unspecified)	0.68	-6.0	4	i	3.4	-1	5	3.0	23
NS(=O)(=O)c1ccc2nc(NC(=O)c3ccc4c(c3)OCCO4)sc2c1	0.67	2.6	6	i	-19	4	8	0.3	-1
CC1CCC(C(C)C)C(OCC(O)CN2CCOCC2)C1 (stereo unspecified)	0.69	5.6	0	i	1.8	-12	-8	-3.6	-1
CC(C)Sc1ncnc2c1cnn2-c1ccccc1	0.64	0.1	-4	i	4.3	-20	-23	-7.1	-7
COc1ccc(C(=O)O)cc1S(=O)(=O)NC(C)C12CC3CC(CC(C3)C1)C2 (stereo unspecified)	0.67	3.2	-3	i	2.1	-8	-30	-4.5	.
CCCS(=O)(=O)N1CCN(CC2CC=CCC2)CC1 (stereo unspecified)	0.69	3.6	7	.	0.5	.	.	.	2
Cc1cc(=O)oc2cc(OCC(=O)Nc3cccnc3)ccc12	0.66	1.4	-3	i	-22	-11	2	-2.5	.
CCCc1nn2c(=O)cc(CSCC(=O)Nc3cccc(C)c3)nc2s1	0.69	0.5	8	i	3.8	15	17	1.4	5
COCCNC(=O)COC(=O)c1ccc(OCC(=O)Nc2ccccc2OC)c(OC)c1	0.64	-0.4	9	i	-1.0	4	11	-2.2	.
COc1cccc(-n2cnc3cccc(N)c32)c1	0.63	2.1	3	.	4.1	.	.	.	87*
CC(=O)NS(=O)(=O)c1ccc(NC(=O)CCc2ccccc2)cc1	0.66	-4.1	3	i	-0.5	4	4	1.1	-2
COc1ccc(C(CCN(Cc2ccc(OC)c(OC)c2)C(C)=O)c2ccccc2)cc1 (stereo unspecified)	0.73	4.1	12	i	3.7	-19	-21	14	-7
O=C(c1ccc(S(=O)(=O)Cc2ccccc2F)c([N+](=O)[O-])c1)N1CCCCCC1	0.73	-3.9	8	i	1.0	-12	-6	-0.7	4
COCCNC(=O)c1ccc2c(c1)CCN2S(C)(=O)=O	0.66	1.0	-4	i	-1.5	12	2	-6.9	-10
O=C(NCc1ccccc1)c1cc2ccc(O)cc2oc1=O	0.65	6.4	3	i	i	-19	-16	-1.1	.
O=C(OCC(=O)N1CCC(Cc2ccccc2)CC1)c1ccc(O)cc1	.	-1.4	.	i	.	-4	-39	-7.9	.
Cc1c(C(=O)O)sc2nc3n(c(=O)c12)CCCCC3	0.68	-2.9	2	.	1.1	.	.	.	-14
CCOC(=O)c1ccccc1-c1csc(NS(=O)(=O)c2ccc(Cl)cc2)n1	0.71	-1.2	-1	.	0.1	.	.	.	30
Cc1cc(C(=O)OCC(=O)N(CC(C)C)c2c(N)n(Cc3ccccc3)c(=O)[nH]c2=O)c2ccccc2n1	0.69	-2.4	15	i	0.1	12	11	14	-9
CCC(NC(=S)Nc1ccccc1)C(=O)O (stereo unspecified)	0.68	-2.1	3	.	3.0	.	.	.	35
Cc1ccc(C(=O)c2nc(C(=O)NCCO)nc3ccccc23)cc1	0.71	-0.2	-7	i	-2.9	-12	-19	-4.2	7
O=C(Cc1ccc(Br)cc1)OCC(=O)N1CCc2ccccc2C1	0.65	-1.6	3	.	1.8	.	.	.	-6
O=C(CSc1ccccn1)Nc1ccc(F)c([N+](=O)[O-])c1	0.66	1.4	9	i	2.6	-7	-2	2.2	.
CC(CN1CCCC1)OC(=O)c1ccc(Cl)cc1 (stereo unspecified)	0.67	3.6	-11	i	1.4	8	10	-1.8	-2
CCOC(=O)C1=C(CS(=O)(=O)c2ccccc2)NC(=O)NC1c1cc(OC)c(O)c(OC)c1 (stereo unspecified)	0.7	-4.7	9	i	0.4	0	8	-1.0	-14

Screening results (PubChem BioAssay)
